RGS16-Gao: RGS16-Galphao interaction regulator (human); O15492+P09471; bead-based flow cytometry RGS16-Galphao binding, fluorescence; actives lie on both sides; binding response (% of control), % at 10 µM; 220,000 tested, 0.38% active; AID 1441;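 active = below 25% or above 175%, edge rows of some plates excepted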;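 note: Galphao activated by GDP with aluminum fluoride before binding; 100% = wells without compound and 0% = beads without RGS; some results beyond the cut were filed as inactive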
PKD1 kinase inh: PKD1 (human) kinase inhibition; Q15139; PKD1 kinase fluorescence polarization assay; inhibition, %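 (about 10 µM by stock and volumes)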; 200,000 tested, 0.056% active;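 active = inhibition of 50% or more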;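 note: controls were vehicle for no effect and a reference inhibitor for full effect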
Target sequence (Q15139 whole entry, looked up): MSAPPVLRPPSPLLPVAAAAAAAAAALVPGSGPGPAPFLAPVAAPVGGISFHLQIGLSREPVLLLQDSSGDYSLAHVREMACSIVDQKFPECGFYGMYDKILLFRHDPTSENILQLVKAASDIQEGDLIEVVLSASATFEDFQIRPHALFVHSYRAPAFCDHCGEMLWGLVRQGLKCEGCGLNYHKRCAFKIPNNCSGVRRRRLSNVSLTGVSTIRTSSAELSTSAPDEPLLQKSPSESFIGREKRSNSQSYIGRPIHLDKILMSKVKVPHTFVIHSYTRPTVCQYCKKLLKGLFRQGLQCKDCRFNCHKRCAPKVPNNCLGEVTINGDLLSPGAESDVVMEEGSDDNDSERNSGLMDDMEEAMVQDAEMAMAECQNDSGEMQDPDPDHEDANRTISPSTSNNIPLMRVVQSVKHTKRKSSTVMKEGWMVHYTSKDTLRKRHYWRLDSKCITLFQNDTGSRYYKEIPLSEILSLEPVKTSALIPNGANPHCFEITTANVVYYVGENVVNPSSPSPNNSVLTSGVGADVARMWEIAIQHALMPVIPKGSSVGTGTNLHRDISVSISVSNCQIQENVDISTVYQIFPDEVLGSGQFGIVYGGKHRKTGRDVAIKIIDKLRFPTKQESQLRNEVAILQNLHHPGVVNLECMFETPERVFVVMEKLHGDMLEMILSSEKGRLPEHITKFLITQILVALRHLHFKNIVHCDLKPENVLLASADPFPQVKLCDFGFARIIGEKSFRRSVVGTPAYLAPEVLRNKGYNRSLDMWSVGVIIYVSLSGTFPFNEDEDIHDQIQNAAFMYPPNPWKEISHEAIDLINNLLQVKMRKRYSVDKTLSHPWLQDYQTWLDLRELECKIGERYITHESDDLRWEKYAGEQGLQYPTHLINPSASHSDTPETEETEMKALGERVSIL
HSV replic up: increases HSV replication in cells | HSV replication augmentation in cells, fold increase | maximum fold increase | 220,000 tested, 0.005% active | AID 1956;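 active = peak rise of 1.5-fold or more in the series; tested in PC3 cells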;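 note: first round at 10 µM; read as green reporter fluorescence; hits show the peak of a series up to 25 µM; 1 = signal of infected wells without compound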
Insulin prom inh: TRM-6 insulin promoter activity inhibition | TRM-6 cells (human fetal islet line), insulin promoter-eGFP reporter, imaging; reporter expression induced with tamoxifen | 130,000 tested, 0.9% active | AID 1273 | inhibition, % at 2 µM;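 active = inhibition above the mean plus 3 SD, with well images judged a real hit on visual review, cut at about 60% in these data, passing the limit was not always enough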
GALR2 agonist: agonists of human galanin receptor 2 (GALR2); activation, %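 (tested at 5 µM)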; 140,000 tested, 0.48% active; GALR2-expressing cells, agonist activation read-out; O43603;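 active = above mean plus 3 SD of all compounds, about 5% in these data, not always enough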;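 note: 0% = vehicle buffer wells and 100% = reference agonist at full effect; tested in CHO reporter cells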
Insulin prom inh cell count: recorded beside Insulin prom inh, whose call it bears; normalized cell count, %; measured here: cell count, toxicity; reference of the scale not given here;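 cells exposed to compound for 48 h; stained nuclei by imaging scaled within each plate; lower means fewer cells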
HSV replic up primary fold: recorded beside HSV replic up, whose call it bears; fold increase; compound at 10 µM; measured here: primary screen fold increase 10 uM; tested in PC3 cells;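 GFP signal in the first replicate; 1 = infected wells without compound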
* marks the source's active call; other numbers are inactive results; i = inactive; . = no result given.

SMILES	RGS16-Gao	PKD1 kinase inh	HSV replic up	HSV replic up primary fold	Insulin prom inh	Insulin prom inh cell count	GALR2 agonist
NC(=S)c1cc2cc(Cl)ccc2oc1=O	106	.	i	0.74	.	.	.
CN(C)S(=O)(=O)c1ccc(Cl)c(NC(=O)COC(=O)CC(NC(N)=O)c2ccc(Cl)cc2)c1 (configuration not stated)	95	.	i	0.87	.	.	.
O=C(CC(c1ccccc1)c1ccccc1)OCn1nnc2ccccc2c1=O	104	1	i	1	43	54	-2.1
O=C(COC(=O)C1=COCCO1)Nc1ccc(OC(F)F)cc1	106	1	i	1	50	109	.
COCC(=O)Oc1c(S(=O)(=O)c2ccc(C)cc2)c(C)nn1-c1ccccc1	99	-18	i	1	12	137	-2.4
Cc1cc(C)c(C)c(S(=O)(=O)N2CCN(C(=O)CCC(=O)N3CCOCC3)CC2)c1C	103	.	i	1	.	.	.
Cc1ccsc1/C=C(/C#N)C(=O)NCc1ccccc1	102	1	i	0.95	.	.	0.2
COC(=O)CNC(=O)c1cccc(F)c1	103	-9	i	0.96	-11	166	-1.1
O=C(N/N=C/c1cnc(N2CCCCC2)s1)c1ccc(Cl)cc1	97	-3	i	0.91	8	71	.
CC1Cc2nc(SCC(=O)Nc3ccccc3F)n(C)c(=O)c2S1 (configuration not stated)	103	-7	i	1	-45	127	-1.0
Cc1ccc(S(=O)(=O)Nc2ccc(Cl)cc2C(=O)c2ccc(F)cc2)cc1	105	2	i	0.98	.	.	-0.9
COc1ccc(Cl)cc1NC(=O)CN(C)Cc1ccc(OC)c(OC)c1	133	2	i	0.95	.	.	.
COc1ccc(Cl)cc1NC(=S)N1CCN(c2ccccn2)CC1	95	-16	i	0.89	-3	118	-3.4
CC1(N2CCCCC2)C(=O)c2ccccc2C1=O	100	-2	i	0.92	-3	119	0.4
O=C(N/N=C/c1cccc2nccnc12)c1ccncc1	98	.	i	1	.	.	.
COc1ccc(NC(=O)NCCCN2CCC(Cc3ccccc3)CC2)cc1	102	.	i	0.86	.	.	.
CN1C(=O)/C(=C\c2ccco2)N=C1c1ccc(Cl)cc1Cl	94	.	i	1	.	.	.
O=C(NCC1CCCO1)C1CC(c2ccc(Cl)c(Cl)c2)=NO1 (configuration not stated)	99	-5	i	1	14	103	-2.4
CC12CN3CC(C)(CN(C1)C3c1ccc(Br)cc1)C2=O (configuration not stated)	138	-7	i	0.99	29	44	-2.2
Cn1cccc1C(=O)NC(=O)COC(=O)CNC(=O)CNC(=O)c1ccc(Cl)cc1Cl	101	-4	i	1	.	.	.
COc1cc(/C=C2\SC(=O)N(c3ccc(O)cc3)C2=O)cc(OC)c1OC	100	.	i	0.94	.	.	.
CCOC(=O)c1c(C2CC2)csc1NC(=O)COC(=O)c1ccc[n+]([O-])c1	62	1	i	1	-30	116	0.4
O=C(NC1CCCCC1)c1ccccc1C(F)(F)F	95	-2	i	0.99	.	.	.
COc1ccc(Oc2ccc(C(F)(F)F)cc2NC(=O)c2ccc(F)cc2)cc1	101	.	i	1	.	.	.
O=C(O)c1cc(-c2ccc(/C=N/N3C(=O)C4C5C=CC(CC5)C4C3=O)o2)ccc1Cl (configuration not stated)	104	-1	i	1	.	.	.
CC(C)CC(C(=O)O)N1C(=O)C2C3CC(C2C1=O)C1C(c2ccccc2)c2sc(=O)[nH]c2SC31 (configuration not stated)	95	0	i	1.1	-19	71	0.3
COc1ccccc1N1CCN(C(=O)c2coc(=O)c(Br)c2)CC1	103	.	i	1.3	.	.	.
COc1cc(/C=N/NC(=O)c2cccnc2)ccc1OS(=O)(=O)c1ccc(F)cc1	102	9	i	0.8	43	55	-1.4
Cc1cc(C)nc(-n2nc(C)cc2NC(=O)c2cccc(S(=O)(=O)N3CCCCC3)c2)n1	93	-7	i	0.86	.	.	-1.5
CC1CCN(Cc2ccc(NC(=O)C3CCN(c4nnc(-n5cccc5)s4)CC3)cc2)CC1	107	1	i	1.4	-80	93	0.6

4 of these compounds, set out differently:
| smiles | RGS16-Gao | PKD1 kinase inh | HSV replic up | HSV replic up primary fold | Insulin prom inh | Insulin prom inh cell count | GALR2 agonist |
| --- | --- | --- | --- | --- | --- | --- | --- |
| O=C(NC1CCCCC1)c1ccccc1C(F)(F)F | 95 | -2 | i | 0.99 | . | . | . |
| COc1ccc(Oc2ccc(C(F)(F)F)cc2NC(=O)c2ccc(F)cc2)cc1 | 101 | . | i | 1 | . | . | . |
| O=C(O)c1cc(-c2ccc(/C=N/N3C(=O)C4C5C=CC(CC5)C4C3=O)o2)ccc1Cl (configuration not stated) | 104 | -1 | i | 1 | . | . | . |
| CC(C)CC(C(=O)O)N1C(=O)C2C3CC(C2C1=O)C1C(c2ccccc2)c2sc(=O)[nH]c2SC31 (configuration not stated) | 95 | 0 | i | 1.1 | -19 | 71 | 0.3 |

(listing goes on)
SMILES	RGS16-Gao	PKD1 kinase inh	HSV replic up	HSV replic up primary fold	Insulin prom inh	Insulin prom inh cell count	GALR2 agonist
COc1cc(/C=C/C(=O)O)cc(S(=O)(=O)NC2CC2)c1OC	108	-4	i	0.88	.	.	0.2
CCOC(=O)c1[nH]c2ccccc2c1NC(=O)NC1CCCCC1	105	-6	i	0.99	.	.	-1.2
O=C(CCSc1ccc(Cl)cc1)NC12CC3CC(CC(C3)C1)C2	117	1	i	0.95	24	114	-2.3
O=C(NC1CCCCC1)C1CCCN(S(=O)(=O)c2cnc[nH]2)C1 (configuration not stated)	81	-11	i	0.83	.	.	-2.4
Cc1cccc(NC(=O)CN2C(=O)N/C(=C/c3cc(C)n(C(C)C)c3C)C2=O)c1	99	-3	i	0.81	24	148	-0.7
COc1ccc(OC(C)C(=O)NCCC2=CCCCC2)cc1 (configuration not stated)	101	6	i	0.94	.	.	.
CC(C)CCN1CC(C(=O)NCc2ccccc2)CC1=O (configuration not stated)	72	9	i	0.96	-38	126	-2.2
CCOC(=O)c1c[nH]c2c(C)cc(C)cc2c1=O	102	1	i	0.96	.	.	-1.6
Cc1cc(C)c(C)c(OCC(=O)O/N=C(\N)c2ccccn2)c1	103	-2	i	0.89	.	.	-2.1
CC(=O)Oc1c(S(=O)(=O)c2ccc(C)cc2)c(C)nn1-c1ccccc1	101	-8	i	0.96	-18	98	-1.9
O=C(CCCN1C(=O)CCC1=O)Nc1ccc2c(c1)OCCO2	96	11	i	1	-118	101	-2.3
O=C(c1cnc2sccn2c1=O)N(Cc1ccccc1)c1ccccn1	104	-12	i	1.1	60	123	-0.6
CCN(CC)S(=O)(=O)c1cc(OCC(N)=O)c(C)cc1Cl	96	-2	i	1	-6	116	-1.0
CCCC(=O)Oc1ccc(N(C(=O)CCC)S(=O)(=O)c2cccs2)cc1	110	-5	i	0.86	-33	92	.
COC(=O)c1cc(CNC(=O)c2cccc(Cl)c2Cl)ccc1OC	104	-19	i	0.92	-7	119	0.1
Cc1cccc(OCCCn2c(=O)sc3ccccc32)c1	102	-4	i	0.99	-83	79	-1.4
Cc1ccc(C2=N/C(=C/N3CCOCC3)C(=O)O2)cc1	53	-4	i	0.98	-27	131	-1.2
COc1cc(C(=O)OCC(=O)c2cc(C)n(C)c2C)cc(NC(=O)c2ccco2)c1OC	103	3	i	0.89	-15	162	-1.1
CNc1cc(CS(=O)c2ccccc2)nc(-c2ccccc2)n1 (configuration not stated)	102	-12	i	0.94	-19	80	-2.5
CCOc1ccc(-c2nc(C#N)c(N3CCN(Cc4ccccc4)CC3)o2)cc1	102	-11	i	0.96	.	.	-2.3
O=C(Nc1ccc2c(c1)OCCO2)C1CCN(C(=O)c2ccc(Br)cc2)CC1	105	-5	i	1.1	59	129	-2.4
Cc1cccc(C(=O)Nc2ccccc2C(=O)OCC(=O)Nc2ccc(C#N)cc2)c1	125	6	i	0.98	55	105	-1.4
COc1ccc(-c2c(C)n([O-])c3c([n+]2=O)CCCC3)cc1	103	-11	i	0.88	-25	65	-2.3
CCOC(=O)C(=NCC1CCCO1)NNc1ccccc1Cl (configuration not stated)	100	.	i	1.1	.	.	.
Oc1ccc(/C=N/N2CCOCC2)c(O)c1O	96	5	i	1.1	-7	126	.
O=C(CCC(=O)Nc1ccc(Oc2ccccc2)cc1)NCCO	100	-6	i	0.96	27	104	-0.4
Cc1ccc(S(=O)(=O)Cc2ccc(C(=O)N3CCN(c4cc(C)ccc4C)CC3)o2)cc1	105	7	i	0.68	38	126	-1.9
COc1cc(C(=O)NCCC(C)C)c([N+](=O)[O-])cc1OC	102	-13	i	1.1	37	114	-2.0
CCOC(=O)C1CCN(c2cc(C)nc3cc(-c4cccc(F)c4)nn23)CC1	104	-3	i	0.83	-11	71	2.2
COc1ccc(C(C[N+](=O)[O-])c2c(-c3ccccc3)cc3ccccn23)cc1OC (configuration not stated)	100	-7	.	.	14	102	-2.6
O=C(CNC(=O)c1cccs1)OCC(=O)c1ccc([N+](=O)[O-])cc1	93	8	i	0.89	.	.	.
Cc1nnn(-c2nonc2N)c1C(=O)NNC(=O)c1ccc(Cl)c(Cl)c1	103	-6	i	0.96	.	.	.
CC(C)(C)c1csc(NC2=NS(=O)(=O)c3ccccc32)n1	112	-1	i	1.1	50	84	-2.7
CNC(=O)NC(=S)NC(=O)c1ccc(OC)cc1	109	-1	i	0.9	-24	149	-2.6
CC1(C)CC2CC(C)(CN2Cc2c(O)ccc3ccccc23)C1 (configuration not stated)	103	3	i	0.99	.	.	.
Cc1cc(-c2ccccc2)nc2cc(C(=O)NCCCn3ccnc3)nn12	101	0	i	1	.	.	0.1
CCCCCC1(C)NC(=S)N(c2ccccc2)N1 (configuration not stated)	106	2	i	0.98	-5	141	.
COc1ccc(CN(C)C(=O)COC(=O)c2ccc3c(c2)OCO3)cc1OC	104	-7	i	0.95	1	99	0.7
O=C(CSc1nc(-c2ccccc2)cc(C(F)(F)F)n1)c1cccc([N+](=O)[O-])c1	76	-4	i	0.97	.	.	-3.2
COc1cc(/C=N\Nc2nc3ccccc3[nH]2)cc(OC)c1OC	87	1	i	1.1	.	.	-2.2
N#CCc1nc2c3c4c(sc3ncn2n1)CCCC4	100	-6	.	.	-28	112	-0.2
O=C1[C@@H]2CSCN2C(=O)CN1Cc1ccc(F)cc1	97	.	i	0.92	.	.	.
COc1cc(C2C3=C(CC(c4ccco4)CC3=O)Nc3ccccc3N2C(C)=O)cc(OC)c1OC (configuration not stated)	86	-8	i	1	-136	50	-1.7
CN1C(=O)C2(c3ccccc31)N(C)CC(c1ccccc1)C21SC(=S)N(Cc2ccco2)C1=O (configuration not stated)	105	-14	i	0.88	50	47	-1.7
COc1cc2nc(NC(=O)c3ccccc3)[nH]c(=O)c2cc1OC	99	-10	i	0.81	0	144	-0.2

The last 3 entries of the part before open the next one:
SMILES	RGS16-Gao	PKD1 kinase inh	HSV replic up	HSV replic up primary fold	Insulin prom inh	Insulin prom inh cell count	GALR2 agonist
COc1cc(C2C3=C(CC(c4ccco4)CC3=O)Nc3ccccc3N2C(C)=O)cc(OC)c1OC (configuration not stated)	86	-8	i	1	-136	50	-1.7
CN1C(=O)C2(c3ccccc31)N(C)CC(c1ccccc1)C21SC(=S)N(Cc2ccco2)C1=O (configuration not stated)	105	-14	i	0.88	50	47	-1.7
COc1cc2nc(NC(=O)c3ccccc3)[nH]c(=O)c2cc1OC	99	-10	i	0.81	0	144	-0.2
Cc1cccc(C(=O)NN(C)c2nc(-c3ccccc3)nnc2C(F)(F)F)c1	96	-13	i	0.98	-123	93	-1.1
Cc1cc(C)c2c(-n3cccc3)c(C(=O)NNS(=O)(=O)c3ccc(Cl)cc3)sc2n1	106	-1	i	1.1	38	136	0.4
O=C(COC(=O)c1cc(-c2cccs2)nn1-c1ccccc1)Nc1cc([N+](=O)[O-])ccc1Cl	101	5	i	0.98	.	.	0.4
CCn1ncc([C@@H]2C[C@H]3CN(Cc4ccccc4C)C(=O)[C@]34CCCN24)c1C	57	-6	i	1	-38	101	.
Cc1cc(C)n(-c2nc3ccccc3c(=O)n2OCc2ccc(Cl)cc2)n1	101	-9	i	0.99	37	178	-1.5
CCn1nnnc1SCC(=O)Nc1cc(C)on1	66	-6	i	0.98	44	128	-1.4
CCOc1ccc(NC(C(=O)Nc2cccc(C(C)=O)c2)c2ccccc2)cc1 (configuration not stated)	98	-2	i	0.98	-54	118	-0.1
c1ccc(CCCc2nc(-c3ccccn3)no2)cc1	106	-13	i	1.2	-275	113	-1.1
CCOC(=O)C1=C(c2ccccc2)N2CCN=C2S1	.	-1	.	.	-21	96	-2.9
CCc1ccc(Oc2ncnc(N)c2[N+](=O)[O-])cc1	102	7	i	0.87	.	.	.
COc1ccc(NC(=O)COC(=O)/C=C/c2ccc(OC)c(S(=O)(=O)N3CCOCC3)c2)cc1	97	0	i	0.94	44	97	-0.8
Cc1nn(Cc2ccc(Cl)c(Cl)c2)c(C)c1NC(=O)c1noc2c1CCCCC2	103	-9	i	0.87	.	.	-1.3
Cc1cccc(C(C)C)c1NC(=O)c1ccc(COc2ccc3c(C)cc(=O)oc3c2)cc1	109	-8	i	0.86	31	183	-1.7

Bioassay records (PubChem)
